CBX7 inh: CBX7 chromodomain binding inhibitors, primary screen, biochemical, AlphaScreen. Chromobox protein homolog 7 (Homo sapiens), O95931. AlphaScreen His6-CBX7 / biotin-H3K27me3 peptide binding; active compounds read low. normalised signal (fraction of DMSO) (test concentration not listed). 66,000 compounds, 1.1% hits; in the data active = normalised signal below about 0.5;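 also: 100 nL library stock added to about 20 µL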
Target sequence (O95931 whole entry, looked up): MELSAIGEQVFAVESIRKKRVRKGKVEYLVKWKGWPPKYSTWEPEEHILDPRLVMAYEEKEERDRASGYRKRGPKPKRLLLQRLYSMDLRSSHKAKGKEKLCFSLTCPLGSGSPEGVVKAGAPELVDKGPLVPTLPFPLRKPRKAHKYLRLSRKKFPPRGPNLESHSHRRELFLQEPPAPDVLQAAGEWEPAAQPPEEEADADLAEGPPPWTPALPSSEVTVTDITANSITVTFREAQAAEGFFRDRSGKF
CBX7 inh z-score: second read-out of CBX7 inh, no call of its own (marks repeat the call); z-score; measured here: z-score of CBX7 signal; some inactives read as strong as hits; reference of the scale not given here;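 same signal on another scale; lower means less binding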
Active calls of the source: *. Not all compounds are listed, so the mix of outcomes need not match the whole.

SMILES	CBX7 inh	CBX7 inh z-score
O=C1CCc2cc(S(=O)(=O)NC(Cc3ccccc3)C(=O)NCC3COc4ccccc4O3)ccc2N1 (stereo not given)	1.03	0.212
N#Cc1ccc(NC(=O)c2cc(-c3ccc(Cl)c(Cl)c3)on2)cc1	0.989	-0.337
COc1ccc(CNC(=O)Cn2nc(-c3ccccc3)ccc2=O)c(OC)c1	1.01	0.217
Cc1ccc2c(c1)NC(=O)C(CC(=O)NCCCN1CCN(c3cc(C)ccc3C)CC1)O2 (stereo not given)	0.936	-2.61
CCOc1ccc(NC(=O)c2c(NCc3cccnc3)sc3c2CCC(C)C3)cc1 (stereo not given)	0.642	-5.02
COc1ccc(CNC(=O)c2cnn3c(C)c(Cc4cc(C)ccc4C)c(C)nc23)cc1	1.02	0.606
O=C(c1ccc(S(=O)(=O)N2CCOCC2)cc1)N1CCCCC1c1cccnc1 (stereo not given)	1.02	0.419
Cc1nn(-c2ccccn2)c2c1-c1nc(-c3ccc(Cl)cc3)ncc1CC2	0.951	-0.787
COc1ccc(Nc2ncc(C(=O)Nc3cccc(C(F)(F)F)c3)c3ccccc23)cc1	1.07	1.25
Cc1nc2ncnn2c(C)c1CCC(=O)NCc1ccccc1Cl	1.13	2.56
COC(=O)CNC(=O)c1cn(CC(C)C)c(=O)c2cc(OC)c(OC)cc12	1.22	2.43
CC(=O)c1c(C)nn2c3ccccc3n(C)c12	1.04	1.48
CCOC(=O)CNC1CC(=O)N(c2ccc(OC)cc2)C1=O (stereo not given)	0.725	-4.34
CCCC1=Nc2cc(C(=O)N3CCOCC3)ccc2Sc2ccc(C)cc21	0.851	-2.14
CCOc1cc(/C=C/c2cc(C(F)(F)F)[nH]c(=O)n2)cc(Cl)c1OCC	0.978	-0.605
CCOc1ccc(Nc2cc(C(=O)NC3CCCC3)c3ccccc3n2)cc1	1.1	2.84
CCCOc1ccc(Cn2c(CO)nc3ccccc32)cc1	0.982	-0.712
O=C(Nc1nc(-c2ccccc2)ns1)c1cccnc1	0.955	-0.574
Cc1ccc(-c2nc3cnccn3c2NC2CCCC2)cc1	1.17	1.42
CCc1nnc(NC(=O)CSc2n[nH]c(CC(C)C)n2)s1	1.18	1.6
COc1cc2ccccc2cc1C(=O)Nc1ccc2oc(-c3ccc(F)cc3Cl)nc2c1	1.04	1.66
CCC1CCCCN1CCCNC(=O)c1ccc2c(c1)NC(=O)CS2 (stereo not given)	0.986	-0.156
O=C(O)CC(NCc1cccc(Oc2ccccc2)c1)c1ccc(F)cc1 (stereo not given)	1	0.00126
Cc1cc(OCc2nc(-c3ccncc3)no2)cc(C)c1Cl	1.04	0.38
O=C(O)CCCC(=O)N1CCN(c2nc(-c3ccccc3Cl)c3cc(Br)ccc3n2)CC1	1.01	0.0799

Grouped by structure, those above with a COOH group.
SMILES	CBX7 inh	CBX7 inh z-score
O=C(O)CC(NCc1cccc(Oc2ccccc2)c1)c1ccc(F)cc1 (stereo not given)	1	0.00126
O=C(O)CCCC(=O)N1CCN(c2nc(-c3ccccc3Cl)c3cc(Br)ccc3n2)CC1	1.01	0.0799

The list continues.
SMILES	CBX7 inh	CBX7 inh z-score
O=C(Nc1ccccc1Cl)N1CCCCC1c1cccnc1 (stereo not given)	0.995	-0.051
CCOc1ccc(Nc2cc(C)nc3ccc(OC)cc23)cc1	1.01	0.0792
CCCN(CCC)CCNS(=O)(=O)c1cc(Br)cc2c1N(C(C)=O)CC2	1.02	0.346
Cc1[nH]c2ccc(-c3nnc(SCCO)n3-c3ccc(Br)cc3)cc2c1C	0.455*	-7.64*
O=C(Cn1nnc(-c2ccccc2F)n1)Nc1ccc(Cl)c(Cl)c1	1.11	0.316
O=c1c2ccccc2nc(/C=C/c2ccccc2)n1Cc1ccccc1	0.78	-2.64
Cc1ccc(-n2c(Cc3cccn3C)nnc2SCC(=O)NCCc2ccccc2)cc1	0.9	-2.39
CCOc1ccc(N2CC(C(=O)Nc3ccc(NC(C)=O)cc3)CC2=O)cc1 (stereo not given)	1.02	0.0157
COC(=O)C1CCCN1C(C(=O)NC1CCCCC1)c1ccc(Cl)cc1 (stereo not given)	1.03	0.648
CC1CCCC(NC(=O)C2=CCN(S(=O)(=O)c3ccccc3)CC2)C1C (stereo not given)	1.05	2.32
CCCCn1cnc2cc(NCc3cccc(Br)c3)ccc21	0.253*	-21.5*
COc1ccc(C2C(C(=O)NC3CCCCCC3)c3cc(OC)c(OC)cc3C(=O)N2C)cc1OC (stereo not given)	1.26	2.59
Cc1cccc(C(=O)Nc2sc3c(c2C(=O)Nc2ccccn2)CCCC3)c1	1.1	1.29
Cc1ccc(Cl)cc1NC(=O)Nc1cccs1	1.04	1.75
Cc1ccc(C)c(NC(=O)c2ccc3c(c2)N(Cc2ccc(F)cc2)C(=O)CS3=O)c1 (stereo not given)	1.02	0.377
C=CCOc1nc(-c2ccc(Cl)cc2)nc2ccccc12	1.26	7.8
Cc1ccc(Cc2c(C)nc3nc(SCC(=O)NC4CCC(C)CC4)nn3c2C)cc1 (stereo not given)	0.668	-0.392
CC(C)CCNC(=O)CN1CCN(Cc2ccc(Cl)cc2)C1=O	1	0.0698
Cc1c(C(=O)NC2CCCCC2C)oc2ccc(S(=O)(=O)N3CCOCC3)cc12 (stereo not given)	1	0.0563
CCOc1ccc(-c2cc(C(=O)NCc3ccc(F)cc3)c3ccccc3n2)cc1	0.993	-0.131
CC(C)CCNC(=O)c1cc(Nc2cccc(C(F)(F)F)c2)nc2ccccc12	1.14	2.67
Cc1ccccc1OCc1nnc(SCC(=O)O)n1Cc1ccccc1	1	0.101
CCC1Oc2ccccc2N(CC(=O)NCc2cccc(OC)c2)C1=O (stereo not given)	1.09	2.41
CCCCNC(=O)CSc1nc2ccccc2nc1Cc1ccc(F)cc1	1.07	0.319
CC(NC(=O)CCc1nc2ccccc2n(Cc2c(F)cccc2Cl)c1=O)c1ccccc1 (stereo not given)	0.968	-0.313

(list continues)
SMILES	CBX7 inh	CBX7 inh z-score
CCc1ccc(NC(=O)Cn2cnc3cc(C)c(C)cc32)cc1	0.929	-2.5
COc1ccc(-n2nnc3c(=O)n(CC(N)=O)cnc32)cc1	0.925	-1.43
O=C(CCCn1c(=O)[nH]c2ccsc2c1=O)N1CCN(c2ccc(Cl)cc2)CC1	1.13	0.597
Cc1ccc(Nc2c(-c3ccc(N(C)C)cc3)nc3ccc(C)cn23)cc1	1.03	0.355
COCCN1Cc2cccc(C(=O)Nc3ccc(OC)c(Cl)c3)c2C1=O	0.996	-0.00426
COc1cc(Nc2nc(SCC(=O)N3CCC(C)CC3)nc3ccccc23)cc(OC)c1	0.801	-0.558
CC(C)OCCCNC(=O)Cc1c(C(=O)O)[nH]c2ccccc12	0.948	-0.205
COc1ccc(NC(=O)c2ccc3c(c2)C(=O)N(c2cc(C)on2)C3=O)cc1Cl	1.03	0.651
O=C(CSc1nnc(CNC(=O)c2cccs2)o1)Nc1ccccc1F	1.02	0.715
O=c1cc(Cc2nnc(SCc3ccccc3F)n2-c2ccc(Cl)cc2)[nH]c(=O)[nH]1	0.995	-0.178
CCN1CCCC1CNC(=O)C1CCN(S(=O)(=O)c2c(C)noc2/C=C/c2cccs2)CC1 (stereo not given)	0.973	-1.2
CN1CCN(CCCNC(=O)CCNC(=O)Cn2ccc3ccccc3c2=O)CC1	0.96	-1.02
CCc1ccc2oc(-c3ccc(NC(=O)c4ccc(OC)c(Br)c4)cc3)nc2c1	1.03	1.34
Cc1nnc2ccc(N3CCN(c4ccc(F)cc4)CC3)nn12	0.976	-0.647
Fc1ccc(-c2nnc3ccc(N4CCCC4)nn23)cc1	1	0.00178
COc1ccc(C2=NN(CC(=O)NCCc3ccccc3)C(=O)CC2)cc1	1.03	0.675
CCOc1ccc(-c2cn(-c3ccc(F)cc3)c(=O)[nH]2)cc1Cl	0.959	-0.986
O=C(CSc1nccn1-c1cccc(Cl)c1)NC1CCCC1	0.986	-0.25
CCN(CC)c1nc(C)nc2sc(C(=O)N3CCCCC3C)c(C)c12 (stereo not given)	1.18	0.622
FC(F)(F)C(F)(F)C(F)(F)c1nnc2ccc(NCc3ccccc3)nn12	1.11	1.07
COc1ccc(-c2nc3cccc(C)n3c2Nc2ccc3c(c2)OCCO3)cc1	0.785	-5.42
CCCCN(CC)S(=O)(=O)c1ccc(C(=O)Nc2nnc(C3CC3)o2)cc1	0.0365*	-1.67*
OC1CCCN(C2CCN(Cc3ccccc3)CC2)C1 (stereo not given)	1.02	0.687
CCc1nn(CC(=O)Nc2nccs2)c2ccccc12	0.915	-2.16
Cn1cc(CC(=O)N2CCN(c3ccc(Cl)cc3)CC2)c2ccccc21	0.811	-6.59

Copied from above for reference:
SMILES	CBX7 inh	CBX7 inh z-score
O=C(CCCn1c(=O)[nH]c2ccsc2c1=O)N1CCN(c2ccc(Cl)cc2)CC1	1.13	0.597
Cc1ccc(Nc2c(-c3ccc(N(C)C)cc3)nc3ccc(C)cn23)cc1	1.03	0.355

Molecules from the list above with a CF3 group, in the order listed:
SMILES	CBX7 inh	CBX7 inh z-score
COc1ccc(Nc2ncc(C(=O)Nc3cccc(C(F)(F)F)c3)c3ccccc23)cc1	1.07	1.25
CCOc1cc(/C=C/c2cc(C(F)(F)F)[nH]c(=O)n2)cc(Cl)c1OCC	0.978	-0.605
CC(C)CCNC(=O)c1cc(Nc2cccc(C(F)(F)F)c2)nc2ccccc12	1.14	2.67
FC(F)(F)C(F)(F)C(F)(F)c1nnc2ccc(NCc3ccccc3)nn12	1.11	1.07

(list continues)
SMILES	CBX7 inh	CBX7 inh z-score
COc1cccc(-c2nnc(SCC(=O)N3CCCCC3C)o2)c1 (stereo not given)	1.01	0.6
O=C(CSc1nccn1-c1ccc(F)cc1)Nc1ccc(Cl)c(Cl)c1	0.898	-0.359
CCc1ccc(NC(=O)c2ccc(NC3=NC4CS(=O)(=O)CC4S3)cc2)cc1 (stereo not given)	0.977	-0.432
Cc1ccccc1NC(=O)CCc1nnc2ccc(N3CCOCC3)nn12	0.967	-0.62
CC1CCN(C(=O)CSc2nnc(Cc3cc(=O)[nH]c(=O)[nH]3)n2-c2ccc(Cl)cc2)CC1	1.1	2.62
CCCCC(=O)Nc1c2c(nn1-c1ccc(OC)cc1)CSC2	1.04	1.08
CC1CCCC(NC(=O)CCc2cn(Cc3ccccc3)c3ccccc23)C1C (stereo not given)	0.946	-1.07
O=C(Nc1ccc2oc(-c3ccc(Cl)c(Cl)c3)nc2c1)c1cccc2ccccc12	0.992	-0.393
COc1ccc(Oc2nc(-c3cccnc3)nc3ccccc23)cc1	1.07	1.67
Cc1ccc(-c2noc(CCC(=O)NCc3ccc(F)cc3)n2)cc1	0.945	-0.0745
CN1C(=O)CSc2ccc(C(=O)O)cc21	1.17	2.96
Cc1ccc2c(c1)C(c1ccccc1)N(C(=O)c1ccc(C)c(C)c1)CC(=O)N2 (stereo not given)	0.894	-2.68
Cc1cccc(-c2noc(COc3ccc(C(C)C)cc3)n2)c1	1.44	14.3
Cc1nc2cc(-c3ccccc3)nn2c(C)c1CCC(=O)NCCCOC(C)C	1.01	0.31
CCOc1ccc2nc(N3CCC(C(=O)NCCC4=CCCCC4)CC3)sc2c1	1.11	0.144
c1ccc2c(c1)CCN(c1ccc3nncn3n1)C2	1.07	1.91
Cc1ccc(-c2noc(CCC(=O)N3CCC(C)CC3)n2)cc1	1.36	5.5
Cc1ccc(NC(=O)Cc2ccc(-n3c(=O)[nH]c4ccsc4c3=O)cc2)cc1	0.963	-0.823
COc1cc(C(=O)Nc2cc(-c3nc4cccnc4o3)ccc2C)ccc1OCc1ccc(Cl)cc1	1.04	0.858
Cc1cccc(NC(=O)C(NS(=O)(=O)c2cccs2)C(C)C)c1C (stereo not given)	0.946	-0.688
CCn1c(C(=O)N2CCC(C(=O)N3CCN(C4CCCCC4)CC3)CC2)cc2sccc21	0.891	-0.48
Cc1ccc(C(=O)Nc2sc3c(c2C(=O)N2CCC(C)CC2)CCCC3)cc1	1.05	1.52
CC12CCCCC1c1c(ccc3ccccc13)C(=O)N2 (stereo not given)	0.991	-0.265
Cc1ccc(NC(=O)CCn2nnc(-c3ccc(OCc4ccccc4F)cc3)n2)cc1C	1.01	0.389
Cc1ccccc1NC(=O)C1CCN(C(=O)c2cc3sccc3n2Cc2ccc(F)cc2)CC1	0.99	-0.414

Following part.
SMILES	CBX7 inh	CBX7 inh z-score
Cc1ccc(Nc2nc(-c3ccccc3)c3cc(C)ccc3n2)cc1	1.85	15.4
Cc1ccc2c(c1)N(CC(=O)NCc1ccccc1)C(=O)CO2	1.11	1.77
CCOC(=O)c1cccc(NC(=O)c2ccc3c(=O)n4c(nc3c2)CCCCC4)c1	1.02	0.248
COc1ccc(OC)c(NC(=O)CCNC(=O)Cn2ccc3ccccc3c2=O)c1	0.97	-0.673
O=C1C2=C(Nc3ccccc3SC2c2ccco2)c2ccccc21 (stereo not given)	0.39*	-9.46*
COc1ccccc1OCc1nc(C#N)c(NCCc2ccccc2)o1	0.923	-3.35
Cc1cccc(NC(=O)c2cc3c(n(-c4ccc(Cl)cc4)c2=O)CCCC3=O)n1	0.971	-0.332
CCN(c1ccc(F)cc1)S(=O)(=O)c1ccc2c(c1)CCC(=O)N2	0.955	-1
CCN1C(c2ccccc2)=NN=C(c2ccc(Br)cc2)c2cc(C)ccc21	0.78	-3.19
COC(=O)c1cc2sc(Cl)cc2n1Cc1ccc(C)cc1	1.2	5.92
O=C(C1CCN(c2nnc(-n3cccc3)s2)CC1)N1CCOCC1	1.01	0.565
CC(NC(=O)CN1C(=O)CC(C)(C)S(=O)(=O)c2ccccc21)c1ccccc1 (stereo not given)	1.03	0.774

Some values from the results shown:
COC(=O)c1cc2sc(Cl)cc2n1Cc1ccc(C)cc1 @ CBX7 inh = 1.2
COc1ccccc1OCc1nc(C#N)c(NCCc2ccccc2)o1 @ CBX7 inh z-score = -3.35
CC(NC(=O)CN1C(=O)CC(C)(C)S(=O)(=O)c2ccccc21)c1ccccc1 (stereo not given) @ CBX7 inh z-score = 0.774
O=C(C1CCN(c2nnc(-n3cccc3)s2)CC1)N1CCOCC1 @ CBX7 inh z-score = 0.565
CCN1C(c2ccccc2)=NN=C(c2ccc(Br)cc2)c2cc(C)ccc21 @ CBX7 inh = 0.78
CCN(c1ccc(F)cc1)S(=O)(=O)c1ccc2c(c1)CCC(=O)N2 @ CBX7 inh = 0.955
